H5N1 antiviral – antiviral screen in MDCK cells, H5N1 avian flu; cytopathic effect, luminescence, 72 h; stronger effect = higher value; no value below 0 was filed and about half of the inactive calls have no number; reference of the scale not given here; inhibition, % at 50 µM; actives 0.07% (n = 96,000); in the data active = inhibition above about 25%
Active calls of the source: *; i = inactive.

entry	SMILES	H5N1 antiviral
1	COC(=O)NC1CSCC1OC(=O)CCN1C(=O)c2ccccc2C1=O (stereo unspecified)	i
2	COC(=O)CSc1ncnc2c1sc1nc(N3CCOCC3)c3c(c12)CCCC3	2.5
3	O=C(Nc1cccc(Cl)c1)Nc1nnc(-c2ccccc2)o1	i
4	O=S1(=O)C=C(N2CCOCC2)c2ccccc21	i
5	O=c1c(/C=N/Nc2ccccc2)c(Sc2nnnn2-c2ccccc2)nc2ccccn12	i
6	O=C(Nc1cnc2ccccc2c1)C1COc2ccccc2O1 (stereo unspecified)	1.2
7	Cc1csc(NC(=O)C2CCN(C(=O)CSc3nnc(C)n3Cc3ccccc3)CC2)n1	1.4
8	O=C(OCC(=O)N1CCc2ccccc21)c1cccnc1	i
9	CCOC(=O)Cc1nnc(Nc2cccc(C)c2)c2ccccc12	1.0
10	COc1ccc(C2=NO[C@@H]3C(=O)N(c4c(C)cccc4C)C(=O)[C@H]23)cc1OC	i
11	C#CCOC(=O)C1C2C=CC(C2)C1C(=O)O (stereo unspecified)	0.1
12	COc1ccc(S(=O)(=O)Cc2ccc(C(=O)NC(C)C)o2)cc1	0.4
13	COc1ccc(OC)c(-c2[nH]nc3c2C(c2ccco2)C(C#N)=C(N)O3)c1 (stereo unspecified)	i
14	Cc1ccc(C(=O)NCCCNCCCNC(=O)c2ccc(C)nc2)cn1	i
15	CCOC(=O)c1[nH]c2ccc(Br)cc2c1NC(=O)CCN1CCC(C)CC1	i
16	Cc1nn2c(-n3ccnc3)c3c(nc2c1-c1ccccc1)CCC3	i
17	COc1ccc(NC(=O)CNS(=O)(=O)c2cccc3nonc23)c(OC)c1	0.8
18	COC(=O)Nc1ccc(S(=O)(=O)Nc2ccc(C)cc2)cc1	0.8
19	O=C(CSc1ccc2nnc(-c3ccccc3)n2n1)NCC1CCCO1 (stereo unspecified)	0.8
20	O=C1c2ccccc2NC(c2ccccc2)N1Cc1ccco1 (stereo unspecified)	0.7
21	CC(=O)c1cccc(OCC(=O)c2cc(C)n(-c3cc(C)on3)c2C)c1	i
22	O=C(NCc1ccco1)c1ccc(CS(=O)(=O)c2cccc(C(F)(F)F)c2)o1	i
23	O=C(C1CC(=O)N(C2CCCCC2)C1)N1CCC2(CC1)OCCO2 (stereo unspecified)	0.8
24	CCC(C(=O)NC1CCCC1)N(C(=O)Cn1nnc(-c2ccc(C)o2)n1)C(C)(C)C (stereo unspecified)	i
25	COc1ccc(C(=O)Nn2c(SCc3ccc([N+](=O)[O-])cc3)nc3ccccc3c2=O)cc1	i

Overlap with the part before: 2 compounds; new compounds follow.
entry	SMILES	H5N1 antiviral
24	CCC(C(=O)NC1CCCC1)N(C(=O)Cn1nnc(-c2ccc(C)o2)n1)C(C)(C)C (stereo unspecified)	i
25	COc1ccc(C(=O)Nn2c(SCc3ccc([N+](=O)[O-])cc3)nc3ccccc3c2=O)cc1	i
26	CCOC(=O)c1c(NC(=O)Nc2ccc(Cl)cc2)sc(C)c1C	i
27	CCOc1ccccc1N(CC(=O)NC1CCCC1)C(=O)CCC(=O)Nc1cc(C)on1	i
28	CCCCP(=O)(O)c1ccccc1	i
29	COCCn1nnnc1C(c1ccc(C)cc1)N1CCN(Cc2ccc3c(c2)OCO3)CC1 (stereo unspecified)	i
30	CC1CC(=O)NN=C1c1ccc(NCCO)c([N+](=O)[O-])c1 (stereo unspecified)	i
31	CCCCC(=O)N(c1ccc(OC)cc1)C1C=CS(=O)(=O)C1 (stereo unspecified)	1.2
32	COc1cc(S(=O)(=O)N2CCOCC2)ccc1NC(=O)c1cc2c(s1)CCC2	i
33	Cc1cc(Cl)cc(Br)c1OCCCCn1cncn1	i
34	CCOC(=O)CSc1nnc(CNC(=O)c2cccs2)n1CCc1ccccc1	1.9
35	CC1CCCC(NC(=O)CSc2nccn2C)C1C (stereo unspecified)	0.2
36	Cc1[nH]c(=O)[nH]c(=O)c1S(=O)(=O)N1CCOCC1	0.4
37	N#CC(=C1CCCC1)c1nc(-c2ccccc2O)cs1	i
38	C/C(=N\NC(=O)c1cccc(Br)c1)c1ccc(Br)cc1	0.8
39	O=C(NCCc1ccncc1)Nc1cccc(Cl)c1	i
40	Cc1cc(Cl)c2c(c1)[C@]1(C(=O)N2)[C@@H]2C(=O)N(Cc3ccccc3)C(=O)[C@@H]2[C@@H]2CCCN21	0.2
41	CCCOC(=O)c1ccc(OCC(O)Cn2c(C)nc3ccccc32)cc1 (stereo unspecified)	3.4
42	Cc1cccc(NC(=O)CCN2C(=O)C3C4C=CC(C4)C3C2=O)n1 (stereo unspecified)	i
43	CCOC(=O)Cn1c(C)c(Br)c(=O)c2cccc(C)c21	0.8
44	CC1CN(c2nc3ccccc3nc2C(C#N)C(=O)NCc2ccc3c(c2)OCO3)CC(C)O1 (stereo unspecified)	i
45	COC(=O)Nc1ccc(C)c(NC(=O)OC)c1	i
46	O=c1[nH]c(=O)n(Cc2ccc(F)cc2)c(O)c1C=NCCCn1ccnc1	0.2
47	COC(=O)c1[nH]c2ccccc2c1NS(=O)(=O)c1ccc(F)c(C)c1	i
48	CNS(=O)(=O)c1cccc(C(=O)OCC(=O)Nc2ccccc2OC(F)F)c1	i
49	O=C1CC(NCc2ccncc2)C(=O)N1c1ccccc1 (stereo unspecified)	0.2
50	O=C(Cn1c(=O)n(-c2ccccc2)c(=O)n1CC(=O)N1CCCCC1)N1CCCCC1	0.5

Other entries
entry	SMILES	H5N1 antiviral
51	COc1ccccc1NC(=O)CSc1nc(C)c2c(c1C#N)CCCC2	0.8
52	O=C(c1cccc(S(=O)(=O)N2CCCC2)c1)N1CCN(c2ccccc2)CC1	0.3
53	Cc1cc(F)ccc1S(=O)(=O)Nc1c(C)n(C)n(-c2ccccc2)c1=O	i
54	CCSc1nnc(-c2ccccc2N)c(=O)[nH]1	i
55	COc1ccc(OC)c(S(=O)(=O)N2CCC(C(=O)Nc3cccc(C(F)(F)F)c3)CC2)c1	i
56	Cc1ccc(CN2CCC(c3nc4ccc(Cl)cc4[nH]3)CC2)cc1	i
57	O=C(NCCCn1ccnc1)c1ccc(Cl)c(S(=O)(=O)N2CCOCC2)c1	0.8
58	CCOc1ccc(N(CC(=O)OC)S(=O)(=O)c2ccc3c(c2)n(C)c(=O)c(=O)n3C)cc1	3.8
59	CCOC(=O)Nc1ccc2c(c1)N(C(=O)OCCN(C)C)c1ccccc1CC2	i
60	COc1ccccc1CNC(=O)C1CCCN(S(=O)(=O)c2cccc3cccnc23)C1 (stereo unspecified)	4.1
61	Cc1ccc(S(=O)(=O)N2CCN(C(=O)CN3CCOCC3)C2c2ccccc2)cc1 (stereo unspecified)	i
62	CCOC(=O)C1CCCN(C(=O)C2c3ccccc3Oc3ccccc32)C1 (stereo unspecified)	0.3
63	COc1ccc(C(=O)ON=C2CCN(c3ccc([N+](=O)[O-])cc3)CC2)cc1	i
64	COCCOc1cc(NC(=O)c2sccc2Oc2ccc([N+](=O)[O-])cc2F)c(Cl)cc1Cl	2.6
65	Fc1ccc(-c2nnn(Cc3nc4ccccc4s3)n2)cc1	i
66	CCn1c(C)c(C(C)=O)c(N2CCN(c3cccc(Cl)c3)CC2)nc1=S	0.5
67	O=C(Nc1ccc(N2CCCC2)cc1)C(c1ccccc1)c1ccccc1	0.3
68	COc1ccc(-c2cc(=O)oc3c(C)c(OCc4nn[nH]n4)ccc23)cc1	0.4
69	Cc1nnc(SCC(=O)Nc2ccccc2)n1CCc1ccccc1	0.0
70	Nc1ccc(SC(F)(F)F)cc1C(=O)c1ccccc1	i
71	COc1ccccc1NC(=O)COc1cc(C)nc(C(C)C)n1	i
72	Cc1ccnc2nc(C(=O)Nc3ccc4c(c3)OCO4)nn12	i
73	CCOC(=O)N1CCN(S(=O)(=O)c2ccc(OCC(=O)OC)cc2)CC1	1.0
74	Cn1c(=O)c2c(nc(CN3CCN(c4ccc(F)cc4)CC3)n2Cc2ccccc2F)n(C)c1=O	3.1
75	CCCCCn1c(=O)[nH]c2cc(C(=O)NCc3ccco3)ccc2c1=O	i

The results go on:
entry	SMILES	H5N1 antiviral
76	Cc1ccc(C(=O)C(OC(=O)CCC(=O)Nc2cccc(C)c2)c2ccccc2)cc1 (stereo unspecified)	0.5
77	COc1ccc(CNc2oc(-c3ccccc3)nc2C#N)cc1	0.7
78	CC(/C=N/NC(=O)c1cccc([N+](=O)[O-])c1)=C\c1ccccc1	i
79	Cc1ccc(SC(C)C(=O)Nc2cccnc2)cc1 (stereo unspecified)	i
80	COc1cc2[nH]c(=O)n(CCC(=O)NC3CCCC3)c(=O)c2cc1OC	0.8
81	CS(=O)(=O)c1ccc2nc(NC(=O)CCC(=O)c3cccs3)sc2c1	1.0
82	Cc1c(Cc2ccccc2)c(=O)oc2c(CN(C)C)c(O)c(Cl)cc12	2.3
83	CC(=O)NC1(c2ccccc2)CCN(Cc2nnnn2C(C)(C)C)CC1	i
84	COc1ccc(-c2nnnn2C)cc1S(=O)(=O)NCc1ccccc1	0.8
85	O=C(N/N=C/c1cccnc1)C(O)(c1ccccc1)c1ccccc1	0.1
86	CC(NC(=O)c1ccccc1NS(C)(=O)=O)c1ccccc1 (stereo unspecified)	0.3
87	CCCN1CCC(N2CCN(c3cccc(C(F)(F)F)c3)CC2)CC1	i
88	S=c1[nH]ncn1/N=C/c1ccccc1	i
89	CC1=CC(C)(C)Nc2ccc(OC(=O)c3ccco3)cc21	2.7
90	Cc1ccc(CCSCC(=O)O)cn1	0.7
91	CC(C)CCN1C(=O)CCC1(C)C(=O)NC1CCCCCC1 (stereo unspecified)	0.3
92	COc1ccc(S(=O)(=O)N(Cc2cccs2)C2CCCC2)cc1	i
93	CCOC(=O)C1CCN(C(=O)c2cccc(C(=O)N3CCC(C(=O)OCC)CC3)c2)CC1	1.7
94	Cc1cc(C(=O)NCc2ccc(S(N)(=O)=O)cc2)c(C)o1	1.1
95	Cc1cc(NC(=S)Nc2ccccc2)ccc1Br	i
96	CCCCC(=O)Nc1sc2c(c1C(N)=O)CCC2	i
97	N/C(=N\OC(=O)Cc1ccccc1)c1cccnc1	i
98	Cn1c(SCc2ccc(Br)cc2)nnc1-c1cccs1	1.0
99	N#Cc1c(NC(=O)c2cc(-n3cnnc3)ccc2Cl)sc2c1CCCC2	1.5
100	N#CCSc1nnc(-c2ccccc2O)n1Cc1ccccc1	0.1

New compounds follow
entry	SMILES	H5N1 antiviral
101	Cc1cccc(OCCCC(=O)Nc2ccc(N3CCCCC3)cc2)c1	i
102	COc1ccccc1/C=c1\sc2nc(-c3ccccc3OC)nn2c1=O	i
103	Cc1c(Cl)cccc1NC(=O)c1cccc(NC(=O)CCC(=O)O)c1	i
104	Cc1cccc(/C(N)=N/OC(=O)CCc2ccccc2)c1	0.0
105	COc1ccc(C(=O)Nn2cc3c(c2-c2ccccc2)c(=O)n(C)c(=O)n3C)cc1	1.0
106	O=C(CCCn1c(=S)[nH]c2cc3c(cc2c1=O)OCO3)N1CCN(c2ncccn2)CC1	0.7
107	Cc1ccc(Cn2nnc3c(=O)n(CC(=O)N4CCCCC4)cnc32)cc1	i
108	COc1cccc(C2C(C(=O)Nc3cccnc3)=C(C)Nc3nnnn32)c1OC (stereo unspecified)	i
109	O=C(O)c1ccc(C(=O)c2ccc3c(c2)C(=O)N(Cc2ccco2)C3=O)cc1	0.3
110	O=c1oc(-c2cccc(S(=O)(=O)N3CCOCC3)c2)nc2ccccc12	1.6
111	O=S(=O)(NCCc1ccccc1F)c1cccc(S(=O)(=O)N2CCOCC2)c1	i
112	CC(=O)c1cccc(NC(=O)CN2C(=O)C3C4C=CC(C4)C3C2=O)c1 (stereo unspecified)	0.5
113	CC(C)Nc1ncnc2c1cnn2-c1ccccc1	7.8
114	COc1cccc(/C=C2\N=C(SC)SC2=O)c1OC	i
115	CC(=O)N1CCC2(CC1)CC(=O)c1cc(OCC(=O)N3CCN(C)CC3)ccc1O2	0.3
116	CCOc1ccc(C(=O)c2cc([N+](=O)[O-])ccc2Cl)cc1	1.4
117	CCn1c(SCC(=O)N2CCN(c3ccccc3)CC2)nnc1-c1cc2cc(Cl)ccc2o1	0.6
118	CCCc1ccccc1OCCNC(C)=O	0.4
119	CN1CCN(C(=S)Nc2ccc(Cl)cc2Cl)CC1	0.1
120	CC1=C(C)NC(=S)SC1	0.1
121	CC1=C(C#N)C(=O)N(C)C(C)(C)C1	0.1
122	COc1cc(-c2nnc(SCC(=O)OC3CCCCC3)o2)cc(OC)c1OC	0.8
123	CO/N=C(/c1nonc1N)N1CCN(c2ccc([N+](=O)[O-])cc2)CC1	0.1
124	CSC1=NC2C(N1)N(C)C(=O)N2C (stereo unspecified)	i
125	Cc1cc(NC(=O)CCC(=O)N(c2ccccc2)C(C(=O)NC2CCCC2)c2cccs2)no1 (stereo unspecified)	i

Values in list order from the list:
Compounds 15 to 20 in H5N1 antiviral: i, i, 0.8, 0.8, 0.8, 0.7

Entries from the list above with a nitro group on carbon, in the order listed:
entry	SMILES	H5N1 antiviral
25	COc1ccc(C(=O)Nn2c(SCc3ccc([N+](=O)[O-])cc3)nc3ccccc3c2=O)cc1	i
30	CC1CC(=O)NN=C1c1ccc(NCCO)c([N+](=O)[O-])c1 (stereo unspecified)	i
63	COc1ccc(C(=O)ON=C2CCN(c3ccc([N+](=O)[O-])cc3)CC2)cc1	i
64	COCCOc1cc(NC(=O)c2sccc2Oc2ccc([N+](=O)[O-])cc2F)c(Cl)cc1Cl	2.6
78	CC(/C=N/NC(=O)c1cccc([N+](=O)[O-])c1)=C\c1ccccc1	i
116	CCOc1ccc(C(=O)c2cc([N+](=O)[O-])ccc2Cl)cc1	1.4
123	CO/N=C(/c1nonc1N)N1CCN(c2ccc([N+](=O)[O-])cc2)CC1	0.1

New compounds follow:
entry	SMILES	H5N1 antiviral
126	CNc1oc(-c2ccc(C)cc2)nc1P(=O)(c1ccccc1)c1ccccc1	0.7
127	CC(C)OC(=O)c1c(NC(=O)c2ccco2)sc2c1CCCCC2	i
128	O=C(COc1ccc(Cl)cc1)OCC(=O)N1CCCCCC1	0.3
129	Cc1cccc(NC(=O)CCn2nc(C)cc2C)c1	0.1
130	CCCN(CCC)C1CC(=O)N(Cc2ccccc2)C1=O (stereo unspecified)	0.2
131	CCCC(=O)Nc1nc2ccc(NC(=O)c3cccnc3)cc2s1	i

Only part of the results is shown, so the mix of outcomes need not match the whole.
